Screening data as filed in PubChem BioAssay.
HCMV NEC inh = inhibitors of HCMV UL50-UL53 nuclear egress complex interaction | 190,000 compounds, 0.15% hits | AID 1918969 | inhibition, % (no concentration beside the values) | HTRF UL50-UL53 interaction, normalized percent inhibition;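 active = both replicates at 50% or more, plus weaker picks with an unusually low signal ratio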;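 note: stock transfer was 100 nL into about 20 µL; 0% = negative control wells and 100% = wells with untagged competitor protein; inactives centre near -12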
GIV-Gai inh = inhibitors of GIV GBA-motif binding to rat Galpha-i3. P08753. Galpha-i3/FITC-GIV peptide fluorescence polarization, 90 min; stronger effect = lower value; scaled: aluminum fluoride 0%, vehicle 100%. percent of control (FP), % (no concentration beside the values). 210,000 compounds, 0.42% hits;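 active = replicate mean at 85% of control or lower, very high polarization wells dropped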;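 note: wells of about 15 µL received 100 nL stock; the first replicate is given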
Target sequence (P08753 whole entry, looked up): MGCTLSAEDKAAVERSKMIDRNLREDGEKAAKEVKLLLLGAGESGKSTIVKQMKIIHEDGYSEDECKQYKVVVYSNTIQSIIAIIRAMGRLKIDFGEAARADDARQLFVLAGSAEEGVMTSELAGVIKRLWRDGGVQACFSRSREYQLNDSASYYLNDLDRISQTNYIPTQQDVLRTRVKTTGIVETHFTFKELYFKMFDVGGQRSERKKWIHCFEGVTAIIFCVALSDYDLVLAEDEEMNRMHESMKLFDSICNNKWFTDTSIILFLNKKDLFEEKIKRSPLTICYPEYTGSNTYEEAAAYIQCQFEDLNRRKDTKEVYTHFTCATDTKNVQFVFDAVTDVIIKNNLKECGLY
Sa growth 42C = S. aureus growth inhibition; relative growth, % (concentration not given with the values); 170,000 compounds, 0.53% hits; S. aureus RN4220 growth, OD600, 20 h, 42 °C; stronger effect = lower value;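 active = growth at 42 °C up to 50% and 20 or more points under that at 30 °C, or under 10% at both; inconclusive = no clear call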;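 note: 300 nL library stock went into each well; scaled to the means of positive and negative controls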
Sa growth 42C second temp = further read-out of Sa growth 42C, marked with its call; relative growth, %; measured here: growth at 30 °C;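 optical density after 20 h as mean of two plates; 100% = untreated growth and lower means inhibition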
An asterisk follows results filed as active; ? = inconclusive; nt = no result given; & = joins results of further samples.

1	CC(C)n1c(C(=O)OC(C(=O)NCc2ccco2)c2cccnc2)cc2sccc21 (stereo not given)
2	Cc1nc2scc(C)n2c(=O)c1S(=O)(=O)Nc1ccc(N2CCOCC2)cc1
3	CCOC(=O)c1ccc(N=Cc2ccc3c(c2)OCO3)cc1
4	c1ccc(C2=Nc3ccccc3Oc3ccccc32)cc1
5	COc1ccc(Cn2ccnc2SCC(=O)NCc2ccco2)cc1
6	CN(C)c1ccc(C(CNC(=O)COc2ccccc2)N2CCOCC2)cc1 (stereo not given)

Compound	1	2	3	4	5	6
HCMV NEC inh	7	-10	nt	-5	nt	nt
GIV-Gai inh	106	105	100	nt	104	102
Sa growth 42C	122	94	79	65	111	86
Sa growth 42C second temp	80	88	94	71	84	85

7	Cc1cc(C)n2nc(COc3ccccc3)nc2n1
8	N#CC1=C(N)Oc2c(c(-c3ccccc3)nn2-c2ccccc2)C1c1ccc(Cl)cc1 (stereo not given)
9	CC1CCN(c2nc3ccc(C(=O)NCc4ccccc4)cc3s2)CC1
10	Cc1cc(C)c(C)c(S)c1C
11	CCC(CC)NC(=O)Cc1ccc(Cl)cc1
12	COC(=O)C1C(c2ccc(OC)cc2)C(C(=O)OC)S(=O)(=O)CS1(=O)=O (stereo not given)

Compound	7	8	9	10	11	12
HCMV NEC inh	-13	nt	-16	-10	-4	-7
GIV-Gai inh	107	105	97	nt	nt	99
Sa growth 42C	106	113	99	94	103	101
Sa growth 42C second temp	82	83	91	95	86	93

13	COc1ccc(C2C=C(c3ccc(Cl)cc3)Nc3nc(NS(=O)(=O)c4ccc(Cl)cc4)nn32)cc1 (stereo not given)
14	COc1ccc(Cl)cc1NC(=O)CSC1=Nc2ccccc2C2=NC(CCC(=O)NCc3ccc(F)cc3)C(=O)N12 (stereo not given)
15	COc1ccc(NC(=O)C2C3CCCCC32)cc1 (stereo not given)
16	CC1=CC(=O)N(CCc2c[nH]c3ccc(OCc4ccccc4)cc23)C1=O
17	COc1cc(-c2[nH]nc3c2C(c2cc(OC)c(OC)c(OC)c2)C(C#N)=C(N)O3)cc(OC)c1OC (stereo not given)
18	CN1CCN(c2oc(-c3ccc(S(=O)(=O)N4CCCCC4)cc3)nc2C#N)CC1

Compound	13	14	15	16	17	18
HCMV NEC inh	-28	-17	-7	-15	-10	-30
GIV-Gai inh	108	102	102	nt	104	103
Sa growth 42C	nt	104	109	91	nt	nt
Sa growth 42C second temp	nt	95	110	66	nt	nt

19	O=C(CSc1n[nH]c(-c2ccccc2Cl)n1)N1CCN(c2ccccc2)CC1
20	CN(Cc1ccc(OC(F)F)cc1)C(=O)c1ccc(S(C)(=O)=O)cc1
21	CC1CCc2noc(NC(=O)c3ccccc3)c2C1 (stereo not given)
22	COc1ccc(NC(=O)c2ccc(-n3nc(OCc4ccc(Cl)cc4)ccc3=O)cc2)cc1OC
23	Cc1cc(Nc2ccc(NC(=O)Nc3ccc4c(c3)OCO4)cc2)nc(N2CCCC2)n1
24	COc1cccc(-n2c(SCC(=O)Nc3nccs3)nc3c([nH]c4ccccc43)c2=O)c1

Compound	19	20	21	22	23	24
HCMV NEC inh	nt	-18	-9	-46	21	-5
GIV-Gai inh	105	nt	102	108	106	105
Sa growth 42C	121	99	nt	nt	nt	108
Sa growth 42C second temp	90	98	nt	nt	nt	85

25	COc1cc(C2/C(=C(\O)c3ccccc3)C(=O)C(=O)N2CCC(=O)O)ccc1O (stereo not given)
26	CCc1cccc(CC)c1N(C)C(=O)c1cnccc1C(F)(F)F
27	Cc1ccc(S(=O)(=O)c2nnn(CC(=O)Nc3ccccc3C)c2N)cc1C
28	CC(C)c1cc(NC(=O)COC(=O)c2ccccc2-n2cnnn2)on1
29	O=C(CN1C(=O)c2cccc3cccc1c23)Nc1ccccc1Br
30	O=C(NC(=S)N1CCCc2ccccc21)c1ccco1

Compound	25	26	27	28	29	30
HCMV NEC inh	1	-1	-34	-6	-12	2
GIV-Gai inh	103	110	102	nt	101	nt
Sa growth 42C	100	110	114	97	93	87
Sa growth 42C second temp	99	94	84	89	90	86

2 records drawn at random from the list so far:
25	COc1cc(C2/C(=C(\O)c3ccccc3)C(=O)C(=O)N2CCC(=O)O)ccc1O (stereo not given)
28	CC(C)c1cc(NC(=O)COC(=O)c2ccccc2-n2cnnn2)on1

Compound	25	28
HCMV NEC inh	1	-6
GIV-Gai inh	103	nt
Sa growth 42C	100	97
Sa growth 42C second temp	99	89

Molecules above that contain two or more sulfur atoms, in the order listed:
2	Cc1nc2scc(C)n2c(=O)c1S(=O)(=O)Nc1ccc(N2CCOCC2)cc1
12	COC(=O)C1C(c2ccc(OC)cc2)C(C(=O)OC)S(=O)(=O)CS1(=O)=O (stereo not given)
24	COc1cccc(-n2c(SCC(=O)Nc3nccs3)nc3c([nH]c4ccccc43)c2=O)c1

Compound	2	12	24
HCMV NEC inh	-10	-7	-5
GIV-Gai inh	105	99	105
Sa growth 42C	94	101	108
Sa growth 42C second temp	88	93	85

Additional compounds follow.
31	Cc1c(OC(=O)c2ccco2)ccc2c1CCCC2
32	COc1ccc(OCCSc2nnc3sc4ccccc4n23)cc1
33	CC1Cc2c([nH]c3ccccc23)C(=O)N1 (stereo not given)
34	CCOC(=O)c1c(C)[nH]c(C(=O)C(C)Sc2nnnn2-c2cc(C)ccc2OC)c1C (stereo not given)
35	CCOc1cccc(CC(=O)N2CCc3c([nH]c4ccccc34)C2c2ccc(Cl)cc2)c1OCC (stereo not given)
36	Cc1nc(Nc2ccc(NS(=O)(=O)c3ccc(F)cc3F)cc2)cc(N(C)C)n1

Compound	31	32	33	34	35	36
HCMV NEC inh	-3	-8	-12	-9	nt	-39
GIV-Gai inh	98	nt	103	nt	102	99
Sa growth 42C	85	98	95	104	85	nt
Sa growth 42C second temp	98	59	100	90	98	nt

37	Brc1ccc2c(c1)nc(N1CCNCC1)c1cccn12
38	Fc1cccc(-c2nn3cnnc3s2)c1
39	CCCOc1ccc(C(=O)c2nc3c(n2O)CCCCC3)cc1
40	CCc1ccc(S(=O)(=O)NCc2nc3cccnc3n2Cc2ccccc2Cl)cc1
41	CCN(CC)c1nc(N2CCOCC2)nc(N2CC(=O)N(c3ccccc3)C2=N)n1
42	CC(C)(C)C(=O)NCCc1csc(-c2ccc(Cl)cc2)n1

Compound	37	38	39	40	41	42
HCMV NEC inh	-58	-13	-58	nt	9	-26
GIV-Gai inh	101	109	100	111	110	105
Sa growth 42C	nt	nt	76	94	107	nt
Sa growth 42C second temp	nt	nt	82	96	104	nt

Reformatted with each value named: 4 of the compounds above
(41) CCN(CC)c1nc(N2CCOCC2)nc(N2CC(=O)N(c3ccccc3)C2=N)n1
  HCMV NEC inh: 9; GIV-Gai inh: 110; Sa growth 42C: 107; Sa growth 42C second temp: 104
(42) CC(C)(C)C(=O)NCCc1csc(-c2ccc(Cl)cc2)n1
  HCMV NEC inh: -26; GIV-Gai inh: 105; Sa growth 42C: nt; Sa growth 42C second temp: nt
(40) CCc1ccc(S(=O)(=O)NCc2nc3cccnc3n2Cc2ccccc2Cl)cc1
  HCMV NEC inh: nt; GIV-Gai inh: 111; Sa growth 42C: 94; Sa growth 42C second temp: 96
(37) Brc1ccc2c(c1)nc(N1CCNCC1)c1cccn12
  HCMV NEC inh: -58; GIV-Gai inh: 101; Sa growth 42C: nt; Sa growth 42C second temp: nt

Next section:
43	O=C1CC(c2cccc(F)c2)C2=C(CCCC2=O)N1 (stereo not given)
44	COc1ccc(-c2nn(-c3ccccc3)cc2C2CC(c3ccc(Br)cc3)=NN2C(=O)CCC(=O)O)cc1 (stereo not given)
45	Cc1ccccc1OCC(=O)OCc1cc(=O)n2ccsc2n1
46	CCc1ccc(S(=O)(=O)Nc2ccc(Cn3cnc(-c4nc(-c5ccc(F)cc5)no4)c3)cc2)cc1
47	Cc1cccc(NC(=O)c2ccccc2NC(=O)CN2CSCC2=O)c1
48	CCC1=NN(C(=O)c2cccc(Br)c2)C(O)(C(F)(F)F)C1 (stereo not given)

Compound	43	44	45	46	47	48
HCMV NEC inh	23	-21	nt	-8	-15	-13
GIV-Gai inh	104	104	99	114	nt	105
Sa growth 42C	nt	nt	85	nt	93	nt
Sa growth 42C second temp	nt	nt	87	nt	94	nt

49	Cc1cnc(C(=O)Nc2ccc(N3CCN(C(=O)OC(C)(C)C)CC3)cc2)cn1
50	N#Cc1cccc(OCC(=O)c2ccc[nH]2)c1
51	COC(=O)Nc1cc(C)n(-c2ccccc2)n1
52	N#C/C(=C\c1cn(CC(=O)N2CCCC2)c2ccccc12)C(=O)NCc1ccc2c(c1)OCO2
53	CCN(CC(=O)NCc1ccc(F)cc1)C(=O)C1CC1C (stereo not given)
54	CCOC(=O)C1=C(C)NC(C)=C(C(=O)OCC)C1c1ccc2c(c1)OCO2

Compound	49	50	51	52	53	54
HCMV NEC inh	-10	-7	-5	-34	-21	-16
GIV-Gai inh	99	nt	102	99	nt	100
Sa growth 42C	101	63	87	127	82	nt
Sa growth 42C second temp	86	95	88	103	90	nt

55	Cc1ccc2c(CNCc3ccc(C)o3)c(C(=O)O)n(Cc3ccc(F)cc3)c2c1
56	Cc1ccc(-c2nccc(Nc3ccc(C(=O)NC4CCCC4)cc3)n2)cc1
57	CCn1c2ccccc2c2cc(NC(=O)C(C)OC(=O)c3cccn3C)ccc21 (stereo not given)
58	CNC(=O)c1cc2c(=O)n3cc(C)ccc3nc2nc1NCC1CCCO1 (stereo not given)
59	CC(C)N(Cc1ccccc1)C(=O)CSc1nnc(-c2ccco2)n1-c1ccccc1
60	CCOC(=O)C1(O)c2ccccc2NC(=O)N1C (stereo not given)

Compound	55	56	57	58	59	60
HCMV NEC inh	nt	-5	-7	-72	-10	nt
GIV-Gai inh	104	103	nt	102	nt	98
Sa growth 42C	112	nt	80	96	72	96
Sa growth 42C second temp	92	nt	55	94	73	93

61	CSc1cccc(NC(=S)NN(C)C)c1
62	CN(C)CCNc1ccc(Cl)nn1
63	O=C(Nc1ccc(F)cc1F)Nc1noc2c1COc1ccccc1-2
64	Brc1ccc(Nc2c(-c3ccc4c(c3)OCO4)nc3cnccn23)cc1
65	Cc1noc(C)c1COC(=O)c1ccc2c(c1)S(=O)(=O)N=C1CCCCCN12
66	COc1ccc(N2CCN(C(=O)C3CCCN(C(=O)c4cc5sccc5n4C)C3)CC2)cc1 (stereo not given)

Compound	61	62	63	64	65	66
HCMV NEC inh	-18	12	nt	-2	0	13
GIV-Gai inh	101	105	108	97	nt	105
Sa growth 42C	94	82	94	nt	102	86
Sa growth 42C second temp	91	103	90	nt	94	92

67	O=C(CCCc1ccccc1)OCn1nnc2ccccc2c1=O
68	CCOC(=O)c1ccc(NC(=O)C2CC(=O)N(C)C(=Nc3ccc(C)c(Cl)c3)S2)cc1 (stereo not given)
69	Cc1cc(NC(=O)CCS(=O)(=O)c2cc3c4c(c2)CCN4C(=O)CC3)ccc1Br
70	CC(=O)N=c1scc(C)n1C(C)(C)C
71	CCN1CCN(C(=O)c2sc3ncnc(N4CCN(C)CC4)c3c2C)CC1
72	CS(=O)(=O)c1nnnn1-c1ccc2c(c1)OCO2

Compound	67	68	69	70	71	72
HCMV NEC inh	nt	-19	nt	2	1	nt
GIV-Gai inh	100	103	112	nt	102	102
Sa growth 42C	118	nt	124	92	nt	116
Sa growth 42C second temp	59	nt	99	98	nt	74

73	Cc1ccc2nc(COC(=O)C3=COCCO3)cc(=O)n2c1
74	CCOc1ccc(-c2nonc2NC(=O)c2oc3cc(C)c(C)cc3c2C)cc1OCC
75	COc1ccc(CCNC(=O)CCSCc2ccccc2Cl)cc1OC
76	S=c1nc(-c2cccs2)[nH][nH]1
77	CC(C)NC(=O)COc1ccccc1C#N
78	CC(C)N(Cc1ccccc1)CC(O)COc1ccc(S(=O)(=O)N2CCOCC2)cc1Cl (stereo not given)

Compound	73	74	75	76	77	78
HCMV NEC inh	-62	4	nt	-22	-28	2
GIV-Gai inh	nt	104	103	nt	nt	nt
Sa growth 42C	115	?	103	47	69	87
Sa growth 42C second temp	92	nt	90	44	88	94

79	COC(=O)C1CNc2ccccc2C1=O (stereo not given)
80	Cn1nc(C(=O)NCCN(Cc2ccco2)C2CCCC2)c2c1-c1ccccc1OC2
81	O=C(CSc1oc(-c2ccco2)nc1S(=O)(=O)c1ccccc1)c1ccc(Cl)cc1
82	CCOC(=O)CCSc1ccccn1
83	Cc1cc(/C=N/N2CCOCC2)c(C)n1-c1cccc(S(=O)(=O)N2CCOCC2)c1
84	Cc1ccc(O)c(NC(=O)COCc2cc(-c3ccco3)on2)c1

Compound	79	80	81	82	83	84
HCMV NEC inh	-27	nt	-9	-8	6	nt
GIV-Gai inh	nt	99	101	nt	nt	98
Sa growth 42C	64	85	91	0.3*	92	99
Sa growth 42C second temp	73	80	86	-0.3*	86	89

85	Cc1nc(-c2ccc(Cl)c(S(=O)(=O)N3CCCC(C(=O)NCc4ccc5c(c4)OCO5)C3)c2)no1 (stereo not given)
86	CCCC(=O)c1ccc(O)cc1
87	CCN(CCCNC(=O)c1cc2c(=O)n(CC)c3ccccc3c2s1)Cc1ccccc1
88	CCCc1c(OCCCCc2nn[nH]n2)ccc(C(C)=O)c1O

Compound	85	86	87	88
HCMV NEC inh	-27	-21	-64	-5&-5&-11&-69
GIV-Gai inh	101	101	100	nt
Sa growth 42C	nt	97	106	84
Sa growth 42C second temp	nt	78	87	70
